Compound activity from PubChem BioAssay.
Bfl-1 A1 inh: caspase 3/7 activation in MEF A1-2A-BIM cells, primary screen, A1 inhibitor project, cell-based, luminescence, HTS; Caspase-Glo 3/7 luminescence, 3 h; percent of clofoctol response, vehicle zero; caspase activation, % (concentration not given with the values); 0.066% of 330,000 active;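 active means over half of replicate activation scores above 10%, or exactly half above 10 with the replicate mean above 10; inconclusive means replicate mean below 10 yet half the replicates above 10; inactive means over half of replicates below 10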;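 further: wells of about 30 µL received 50 nL stock; many hits fall short of the cut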
Beta2AR agonist: beta2AR agonists driving receptor internalization, primary screen, cell-based, FAP fluorogen, flow cytometry; Beta-2 adrenergic receptor (Homo sapiens), P07550; Am2.2-beta2AR cells; reference of the scale not given here; response, % (concentration not given with the values); 0.43% of 340,000 active;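 active means response above a set limit, near 3 SD of response in nonfluorescent compounds, cut at about 42% in these data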;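 further: stock transfer was 100 nL into about 11 µL; a reference agonist was the positive control; negative values mostly stem from fluorescent compounds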
Target sequence (P07550 whole entry, looked up): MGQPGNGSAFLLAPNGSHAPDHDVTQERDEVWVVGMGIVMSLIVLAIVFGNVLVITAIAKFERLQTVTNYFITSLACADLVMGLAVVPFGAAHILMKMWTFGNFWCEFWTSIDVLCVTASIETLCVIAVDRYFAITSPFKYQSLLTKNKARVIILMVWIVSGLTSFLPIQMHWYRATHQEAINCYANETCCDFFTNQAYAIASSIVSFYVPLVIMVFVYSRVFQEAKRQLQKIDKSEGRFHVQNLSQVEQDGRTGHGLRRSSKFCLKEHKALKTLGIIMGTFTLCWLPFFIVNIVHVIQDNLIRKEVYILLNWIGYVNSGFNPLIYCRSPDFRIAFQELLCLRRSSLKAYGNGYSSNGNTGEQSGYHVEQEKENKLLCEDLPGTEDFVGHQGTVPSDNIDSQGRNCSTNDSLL
UCH37 inh: inhibitors of human UCH37 deubiquitinase, primary screen, biochemical, Ub-AMC cleavage, fluorescence; Ubiquitin carboxyl-terminal hydrolase isozyme L5 (Homo sapiens), Q9Y5K5; purified proteasome/UCH37; inhibition, % (no concentration beside the values); 0.33% of 330,000 active;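 active means mean of two replicates above 20%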;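 further: 0% = compound-free wells with enzyme and 100% = wells lacking proteasome; stock transfer was 100 nL into about 20 µL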
Target sequence (Q9Y5K5 whole entry, looked up): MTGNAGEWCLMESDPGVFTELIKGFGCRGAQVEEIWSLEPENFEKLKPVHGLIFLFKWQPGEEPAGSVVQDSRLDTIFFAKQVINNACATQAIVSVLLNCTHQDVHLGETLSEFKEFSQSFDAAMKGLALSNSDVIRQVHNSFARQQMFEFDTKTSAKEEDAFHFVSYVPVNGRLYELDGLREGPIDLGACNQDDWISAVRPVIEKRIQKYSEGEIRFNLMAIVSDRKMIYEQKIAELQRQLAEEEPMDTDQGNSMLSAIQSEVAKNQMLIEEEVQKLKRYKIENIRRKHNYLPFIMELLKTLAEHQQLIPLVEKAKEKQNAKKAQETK
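Reagent: Ub-AMC substrate; assay system: Proteasome-associated human UCH37 deubiquitinase; controls: no-proteasome and no-compound wells; read-out: % inhibition of Ub-AMC cleavage fluorescence; timing: 30 min preincubation with enzyme, 25 min cleavage at room temperature; signal: AMC fluorescence from Ub-AMC cleavage, excitation 355 nm, emission 460 nm; buffer or medium: Tris-HCl pH 7.4 plus ovalbumin, ATP-MgCl2, DTT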
RanGTP-Imp inh: inhibitors of RanGTP-importin-beta interaction, primary screen, biochemical, FRET, CFP-Ran, YFP-importin-beta, homogeneous; cell-free CFP-Ran/YFP-importin-beta FRET ratio; inhibition, % (no concentration beside the values); 1.1% of 300,000 active; AID 2216, 2009;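 active means most replicates above 15%; inconclusive means exactly half above 15%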;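 further: 0% = DMSO wells and 100% = Ran loaded with GDP instead of GTP; wells of about 40 µL received 100 nL stock; the first replicate is given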
Calb FLC: C. albicans growth inhibition with fluconazole, primary screen, CaCi-2 strain, Alamar Blue fluorescence. growth inhibition, % (no concentration beside the values). AID 1979, 2009. C. albicans CaCi-2 (fluconazole-resistant clinical isolate) + fluconazole, 48 h. 0.57% of 300,000 active;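 active means most replicates above 75%; inconclusive means exactly half above 75%; inactive means most below 75%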;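 further: all wells also contain fluconazole at 8 µg/ml as a sub-toxic cotreatment; 0% = median of DMSO wells and 100% = median of geldanamycin control wells; wells of about 8 µL received 7.5 nL stock; the first replicate is given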
LANA-H2B inh: blockers of LANA interaction with H2A/H2B – biochemical, FP readout, HTS, primary screen | 0.6% of 320,000 active | cell-free LANA-H2A/H2B peptide, fluorescence polarization | Protein LANA1 (Human herpesvirus 8 type P (isolate GK18)), Q9QR71 | AID 2629, 2010 | inhibition, % (no concentration beside the values); in the data active means inhibition mostly above about 10%, no sharp cut-off; inactive means mostly below about 6.7%;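 further: stock transfer was 7.5 nL into about 10 µL; 0% = median of vehicle wells and 100% = median of positive control wells; one replicate is shown; the record names a cut of 25% in any replicate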
Beta apoptosis: inhibitors of cytokine-induced beta cell apoptosis, primary screen, luminescence | 0.8% of 300,000 active | INS-1E cytokine-induced death, ATP luminescence, 48 h; percent of positive-control rescue, neutral wells zero | AID 435005, 2010 | protection from apoptosis, % (concentration not given with the values);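 active means all replicates at 75% or more, or half of them and the mean; inconclusive means half reach 75% but not the mean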;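 further: 0% = cytokine-treated negative control wells and 100% = positive control rescue; higher means more ATP so stronger rescue from cytokine killing; wells of about 40 µL received 100 nL stock; the first replicate is given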
T cruzi repl: inhibitors of intracellular T. cruzi growth, primary screen, luminescence, NIH3T3 host cells; T. cruzi beta-gal in NIH3T3, 90 h; inhibition, % (test concentration not listed); 1.4% of 300,000 active; AID 1885, 2009;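 active means mean inhibition across valid replicates above about 55%, limit read from the data; inconclusive means mean below that limit but half or more replicates reach it; inactive means mean below it, under half of replicates reach it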;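 further: signal also drops with host cell toxicity which is not excluded here; 0% = plate median of DMSO wells and 100% = zero luminescence signal; higher percent means less beta-gal luminescence so fewer parasites; stock transfer was 50 nL into about 50 µL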
* hit, by the source's call; ? = inconclusive; . = not tested or not shown.

SMILES	Bfl-1 A1 inh	Beta2AR agonist	UCH37 inh	RanGTP-Imp inh	Calb FLC	LANA-H2B inh	Beta apoptosis	T cruzi repl
O=C(NCCOc1ccccc1-c1ccccc1)c1ccco1	-0.4	0	4.1	-1.7	0	5.3	-3	6
CC(=O)c1cccc(NC(=O)CN2C(=O)NC(C)(C)C2=O)c1	0.1	13	3.4	.	.	-1.0	-7	.
CC(C)(C)OC(=O)N1Cc2ccccc2C[C@H]1C(=O)O	-0.1	-2	6.4	2.4	1	-4.6	0	-25
COc1cccc(C(=O)Nc2c3c(nn2-c2ccccc2C)CS(=O)C3)c1OC (stereo not given)	0.0	5	1.1	-2.9	-4	-0.2	-2	-2
O=C1C2C3C=CC(CC3)C2C(=O)N1c1ccccc1F (stereo not given)	0.0	-14	0.6	3.6	-1	3.6	-5	-21
CCC(C)c1ccc(NC(=S)Nc2ccc(OC)cc2)cc1 (stereo not given)	0.6	-5	3.5	-4.9	2	.	-1	-27
O=C(NCCCN1CCOCC1)c1cccc(S(=O)(=O)N2CCN(c3ccccc3)CC2)c1	-0.9	3	3.2	-2.0	0	6.9	-1	-7
NS(=O)(=O)c1cccc(NC(=O)c2ccc(S(=O)(=O)N3CCCCCC3)cc2)c1	0.4	1	-1.7	.	.	-2.0	-1	.
Cc1nc(NC(=O)c2ccc(Br)o2)ccc1Br	.	-8	1.6	0.9	-4	.	.	-9
CCOC(=O)c1c(NC(=O)CSc2nnc(C)s2)sc2c1CCCCC2	-0.2	-4	2.3	-2.6	2	1.2	5	21
Cc1cc(NCCCN)nc(-c2ccccc2O)n1	0.2	1	-3.6	8.3	5	-4.2	-4	4
COc1ccc(OC)c(NC(=O)c2cccc3c2C(=O)N(C2CCCCC2)C3)c1	-0.2	11	1.1	0.1	-5	0.1	-3	30
COc1ccc(C(C)(C)NC(=O)C2CCC(=O)N(C3CC3)C2)cc1OC (stereo not given)	0.8	-4	4.9	-3.2	7	-3.5	1	-10
O=S(=O)(NCc1ccc2c(c1)OCO2)c1ccc(F)cc1	-0.3	4	2.1	-6.5	-39	4.5	-3	-9
COC(=O)c1cccc(N2C(=O)C3C4C=CC(CC4)C3C2=O)c1 (stereo not given)	1.3	-1	0.8	-2.4	6	-1.6	.	-3
O=C(CCCn1c(=S)[nH]c2ccccc2c1=O)NC1CCCCC1	-0.3	-6	-2.4	1.7	-5	-0.5	-8	-4
Cc1cccc(CN2C(=O)c3ccccc3Sc3ccc(C(=O)NCCN4CCOCC4)cc32)c1	0.0	2	1.6	-1.3	12	1.6	0	2
CC(=O)Nc1ccc(NC(=O)C(C)OC(=O)CCSc2ccccc2Cl)cc1 (stereo not given)	-1.4	6	0.7	.	.	-4.4	-6	.
NC1=NC(=O)CC(C(=O)NCCc2ccccc2)S1 (stereo not given)	0.2	8	0.3	-4.4	-7	-2.7	-3	-8
Cc1ccc(OCCN2CCCC2)cc1	-1.4	8	4.0	2.0	-2	1.6	15	3
COC(=O)CC1C(=O)NCCN1C(=O)NC1CCCCC1 (stereo not given)	1.0	-11	-0.7	?	3	2.9	-1	-7
Cc1cccc(-n2c(N)cc(=O)[nH]c2=S)c1C	0.1	1	1.5	-1.3	-11	-1.3	0	7
COc1ccccc1NC(=S)N(CCCN1CCOCC1)Cc1cccs1	0.8	-5	0.7	-0.5	2	2.0	0	10
COc1ccc(OC)c2sc(NC(=O)c3ccc(Cl)s3)nc12	0.0	-11	-12	0.7	0	-1.8	3	1
O=C(c1cc(C2CC2)on1)N1CCN(C(c2ccccc2)c2ccccc2)CC1	-1.2	9	4.6	3.0	5	2.9	9	25
Cc1ccccc1CCNC(=O)CCn1nc(C)c2c(C)n(-c3ccccc3)nc2c1=O	2.2	0	4.0	-2.2	-14	-4.6	0	1
COc1ccc(C(=O)Nc2ccc3nc(N4CCCCC4)cc(C)c3c2)cc1OC	0.9	21	-13	-1.5	3	3.0	0	35
N#Cc1ccsc1NC(=O)CN1CCN(c2ccccc2)CC1	0.5	-66	0.4	4.5	-1	6.7	3	-17
Cc1cccc(N=Nc2cnc(N)s2)c1	-1.3	-1	5.1	-3.6	0	-1.8	-4	-4
Cc1ccc(NC(=O)CCC(=O)N/N=C/c2cccs2)cc1	0.8	-2	.	0.6	-7	0.3	-2	-4
CCN(CC)CCCNC(=O)c1ccccc1NC(=O)C1=CSCCO1	-1.5	1	2.1	-1.8	-1	-1.1	.	10
CC(=O)c1cc(-c2ccccc2)n(CC(=O)N2CCC(N3CCCCC3)CC2)c1C	.	-8	2.4	1.3	-19	.	.	-9
Cc1[nH]c2ccccc2c1N=Nc1ccc(F)cc1	0.3	12	3.9	1.1	0	-3.6	-1	2
O=C(Nc1nc(-c2ccccc2)cs1)c1ccc(S(=O)(=O)N2CCc3ccccc32)cc1	-0.5	14	2.1	-3.8	-5	0.2	20	34
CCn1nccc1C(=O)Nc1cc(Cl)ccc1Cl	0.0	-20	0.6	-2.7	-12	0.3	-11	-7
Cc1ccc(S(=O)(=O)CCC(=O)OCC(=O)Nc2cc(C)on2)cc1	1.6	3	0.8	2.8	6	0.7	-8	-5
Cc1ccccc1C(=O)N1CCC(C(=O)NN2C(=O)NC3(CCC(C)CC3)C2=O)CC1 (stereo not given)	1.1	-4	-2.3	.	.	4.9	-5	.
CCCCn1c(N)c(N(CCC(C)C)C(=O)c2cc(CC)c(C)s2)c(=O)[nH]c1=O	0.1	0	-0.9	-1.4	4	-2.8	0	5
O=C(CSc1nc(-c2ccccc2)cc(=O)[nH]1)N1CCOCC1	1.2	8	5.8	-2.7	-5	1.6	-5	-3
O=C(CS(=O)(=O)c1ccc(C(F)(F)F)cn1)NNC(=O)c1ccccc1	-0.6	0	3.1	-2.7	2	0.7	-2	7
Cn1c(SCC(=O)N2CCCCC2)nnc1-c1ccc(S(=O)(=O)N2CCOCC2)cc1	1.3	0	2.0	2.5	-2	-1.4	-18	-1
Cc1cc(-c2ccccc2)nc(N(C)NC(=O)c2cccc(C(F)(F)F)c2)c1S(C)(=O)=O	2.3	1	1.9	1.6	3	1.9	1	0
CNc1nc(OC)nc(N2CCOCC2)n1	0.3	-3	-1.6	-4.0	2	-1.8	0	1
CC(=O)c1ccc(NC(=O)c2ccc(NC(=O)CCS(=O)(=O)c3cccs3)cc2)cc1	-3.5	-24	2.5	-0.9	-2	-7.3	-8	-18
COc1ccc(N/C=C/C(=O)C(C)(C)C)cc1	-0.7	12	9.4	-2.9	-22	0.1	1	-3
COC(=O)CSc1nc(NC(C)C)nc(N2CCOCC2)n1	-0.4	21	4.5	0.1	3	1.4	-3	-4
CCOCCCNC(=S)N1CCCN(c2nc3c(C)c(C)ccc3cc2C#N)CC1	.	-4	-20	51*	13	.	.	15
Cc1ccc(CNC(=O)c2ccc3c(c2)NC(=O)C(N2CCOCC2)S3)cc1 (stereo not given)	0.0	11	4.8	-4.1	-1	-1.1	-7	4
COc1ccc(C(=O)COC(=O)CN2C(=O)NC(C)(C)C2=O)cc1OC	0.6	5	3.5	-0.7	-13	2.4	-6	-15
Cc1cccc(NC(=O)CN2C(=O)c3ccccc3C2=O)c1C	0.9	3	0.4	3.5	-6	-4.3	-6	0
Cc1cc(C)c(NC(=O)CNC(=O)COC(=O)Cc2ccccc2C)c(C)c1	-0.5	-4	4.6	.	.	0.8	0	.
COc1ccc(CCC(=O)OCC(=O)c2cccc(OC)c2)cc1	-0.4	12	4.8	0.7	2	3.7	-1	-4
COc1ccc(S(=O)(=O)NCc2ccc(F)cc2)cc1OC	0.3	-4	0.4	3.5	3	1.4	1	-1
Cc1cc(N=Nc2c(O)c3ccccc3[nH]c2=O)ccc1N=Nc1ccc(C(=O)N(C)C)cc1	.	0	.	4.6	?	.	.	9
COC(=O)Nc1c(C(=O)OC)cc(OC)c(OC)c1OC	0.2	0	3.5	?	-5	1.5	-2	-4
COc1cc2ccccc2cc1C(=O)N1CCN(c2ccccc2O)CC1	0.0	1	1.9	.	.	-0.7	-4	.
CC(NS(=O)(=O)c1cc(C(F)(F)F)ccc1Cl)C(=O)N(C)C1CCN(C)CC1 (stereo not given)	-0.9	-25	-2.6	.	.	-2.8	-2	.
O=C(/C=C\c1cn(-c2ccccc2)nc1-c1ccc2c(c1)OCCO2)N1CCOCC1	0.5	8	2.1	2.6	66	2.4	2	0
COC(=O)c1ccc(Nc2cc(C)nc3nc(C)nn23)cc1	-0.7	-3	3.7	2.1	6	1.6	3	3
O=C1CC(c2ccccc2Br)c2cc3c(cc2N1)CCC3 (stereo not given)	0.1	.	.	2.0	-9	0.2	4	-19

2 entries from above, in markdown:
| SMILES | Bfl-1 A1 inh | Beta2AR agonist | UCH37 inh | RanGTP-Imp inh | Calb FLC | LANA-H2B inh | Beta apoptosis | T cruzi repl |
| --- | --- | --- | --- | --- | --- | --- | --- | --- |
| COC(=O)Nc1c(C(=O)OC)cc(OC)c(OC)c1OC | 0.2 | 0 | 3.5 | ? | -5 | 1.5 | -2 | -4 |
| COc1cc2ccccc2cc1C(=O)N1CCN(c2ccccc2O)CC1 | 0.0 | 1 | 1.9 | . | . | -0.7 | -4 | . |

More entries follow:
SMILES	Bfl-1 A1 inh	Beta2AR agonist	UCH37 inh	RanGTP-Imp inh	Calb FLC	LANA-H2B inh	Beta apoptosis	T cruzi repl
CCNc1nc(SCC(=O)OC)nc(N(C)C)n1	-0.6	9	2.3	3.2	26	-0.6	1	-3
N#Cc1cnn2c(-c3cccc([N+](=O)[O-])c3)ccnc12	0.7	10	0.4	.	.	3.3	2	.
O=C1c2ccccc2N2C(=O)c3ccccc3C2N1Cc1ccco1 (stereo not given)	-0.7	-14	2.4	1.1	-2	4.9	1	11
CC(C)N(C(=O)CSc1nnc(-c2cc3ccccc3cc2O)n1Cc1ccco1)C(C)C	-0.1	-11	-1.5	-1.9	22	-2.4	-18	7
CCOC(=O)C(C)Sc1nc(-c2ccccc2)nc2ccccc12 (stereo not given)	0.0	-11	2.0	?	?	2.9	-6	-12
COc1ccc(C(=O)Nc2cc(=O)[nH]c3ncnn23)cc1	-4.6	-4	4.1	3.8	5	-6.5	0	-19
O=C1c2ccccc2C(O)(Cc2ccccc2)N1Cc1ccco1 (stereo not given)	0.2	7	2.8	4.8	12	1.5	-1	-7
Cc1cccn2c(=O)c3cc(C(=O)N4CC(C)CC(C)C4)sc3nc12 (stereo not given)	-0.1	-9	-134	-1.6	-2	-2.3	-5	7
O=P(O)(O)CCP(=O)(c1ccccc1)c1ccccc1	-0.4	5	1.5	-0.2	11	0.2	4	-16
COc1ccc(N2C(=O)CNC2=S)cc1	0.6	-14	1.3	-3.2	-2	-2.7	-8	-11
Cc1cc(NS(=O)(=O)c2ccc(NC(=S)NC(=O)c3ccc(F)cc3)cc2)no1	-1.9	3	-4.7	3.4	-6	-3.4	1	12
